Compound activity (PubChem BioAssay)
nsP2pro primary: blocks chikungunya virus nsP2 protease peptide cleavage; FRET peptide cleavage, nsP2pro, fluorescence 1 h; Potency, µM (top dose mostly 24.9 µM), inactives show top-dose activity change, negative = inhibition, actives largely listed as inhibitors; 1.1% of 31,000 active; AID 1964107; active means well fitted inhibition curve with a large enough effect; inconclusive means small, poorly fitted or top-dose-only effect; inactive means no such curve, though single readings can be large or run the other way; also: nearly all actives have a fitted effect of over 60% in size; a reference inhibitor and vehicle were the controls
Target sequence (Q8JUX6 whole entry, looked up): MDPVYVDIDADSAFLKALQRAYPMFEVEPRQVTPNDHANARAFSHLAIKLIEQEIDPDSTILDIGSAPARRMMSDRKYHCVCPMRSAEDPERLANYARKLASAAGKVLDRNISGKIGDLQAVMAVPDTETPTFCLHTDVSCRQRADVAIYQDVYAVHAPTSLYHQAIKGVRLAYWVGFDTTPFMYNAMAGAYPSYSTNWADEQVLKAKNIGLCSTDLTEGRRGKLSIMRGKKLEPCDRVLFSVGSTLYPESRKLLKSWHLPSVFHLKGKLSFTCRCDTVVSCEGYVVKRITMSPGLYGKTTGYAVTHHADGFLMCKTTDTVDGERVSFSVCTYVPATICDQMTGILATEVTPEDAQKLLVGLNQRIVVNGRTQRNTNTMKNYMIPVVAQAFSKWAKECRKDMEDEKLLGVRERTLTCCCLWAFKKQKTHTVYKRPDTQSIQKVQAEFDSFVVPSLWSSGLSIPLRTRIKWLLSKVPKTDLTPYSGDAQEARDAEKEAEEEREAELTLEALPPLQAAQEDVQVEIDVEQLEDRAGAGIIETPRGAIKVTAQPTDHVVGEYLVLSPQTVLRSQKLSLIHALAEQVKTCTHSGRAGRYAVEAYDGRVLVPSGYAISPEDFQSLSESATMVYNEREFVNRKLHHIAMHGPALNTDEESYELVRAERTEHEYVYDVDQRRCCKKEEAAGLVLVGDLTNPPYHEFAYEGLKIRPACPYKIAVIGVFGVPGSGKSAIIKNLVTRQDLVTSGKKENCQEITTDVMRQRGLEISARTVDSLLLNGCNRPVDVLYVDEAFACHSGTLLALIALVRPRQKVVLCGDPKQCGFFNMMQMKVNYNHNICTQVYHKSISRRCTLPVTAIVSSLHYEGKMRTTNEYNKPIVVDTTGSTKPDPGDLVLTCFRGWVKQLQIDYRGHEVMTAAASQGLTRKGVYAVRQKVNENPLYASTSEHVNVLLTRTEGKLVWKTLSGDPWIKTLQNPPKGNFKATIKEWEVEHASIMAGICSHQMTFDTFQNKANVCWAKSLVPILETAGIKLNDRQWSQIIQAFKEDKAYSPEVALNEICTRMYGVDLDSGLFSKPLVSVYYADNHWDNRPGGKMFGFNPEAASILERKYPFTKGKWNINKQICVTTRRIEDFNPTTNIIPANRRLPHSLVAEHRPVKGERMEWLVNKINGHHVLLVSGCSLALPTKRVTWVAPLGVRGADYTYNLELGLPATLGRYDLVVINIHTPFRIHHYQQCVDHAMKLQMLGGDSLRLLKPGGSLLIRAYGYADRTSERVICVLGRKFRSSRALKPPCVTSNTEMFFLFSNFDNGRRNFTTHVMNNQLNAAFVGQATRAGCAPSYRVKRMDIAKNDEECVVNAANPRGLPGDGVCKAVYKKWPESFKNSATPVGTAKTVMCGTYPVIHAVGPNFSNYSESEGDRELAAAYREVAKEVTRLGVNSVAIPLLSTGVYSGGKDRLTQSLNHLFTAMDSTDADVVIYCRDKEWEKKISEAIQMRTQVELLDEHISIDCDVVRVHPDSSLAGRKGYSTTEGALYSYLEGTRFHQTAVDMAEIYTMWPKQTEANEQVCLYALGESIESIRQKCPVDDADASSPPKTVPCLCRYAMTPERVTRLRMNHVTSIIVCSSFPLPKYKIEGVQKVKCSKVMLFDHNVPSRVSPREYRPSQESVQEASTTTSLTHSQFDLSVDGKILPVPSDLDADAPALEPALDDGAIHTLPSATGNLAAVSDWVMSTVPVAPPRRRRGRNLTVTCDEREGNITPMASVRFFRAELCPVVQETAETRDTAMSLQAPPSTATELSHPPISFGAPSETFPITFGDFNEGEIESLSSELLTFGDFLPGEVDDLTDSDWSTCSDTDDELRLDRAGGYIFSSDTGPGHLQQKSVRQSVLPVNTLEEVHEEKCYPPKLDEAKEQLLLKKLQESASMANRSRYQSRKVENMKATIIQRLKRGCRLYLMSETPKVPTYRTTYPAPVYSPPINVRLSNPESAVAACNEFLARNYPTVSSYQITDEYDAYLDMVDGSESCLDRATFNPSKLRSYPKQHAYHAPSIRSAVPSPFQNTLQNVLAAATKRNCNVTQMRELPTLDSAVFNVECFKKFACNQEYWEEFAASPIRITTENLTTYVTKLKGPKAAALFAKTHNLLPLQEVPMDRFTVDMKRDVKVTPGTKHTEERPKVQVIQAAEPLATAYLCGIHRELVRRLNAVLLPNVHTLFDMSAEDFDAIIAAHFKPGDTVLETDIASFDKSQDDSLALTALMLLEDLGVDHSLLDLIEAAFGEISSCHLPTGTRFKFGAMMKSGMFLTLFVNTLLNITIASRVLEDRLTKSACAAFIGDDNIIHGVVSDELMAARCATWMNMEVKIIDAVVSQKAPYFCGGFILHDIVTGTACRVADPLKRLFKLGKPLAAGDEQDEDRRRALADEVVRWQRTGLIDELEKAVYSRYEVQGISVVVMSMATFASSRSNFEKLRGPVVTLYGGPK
Starred values were filed as active, the others as inactive; i = inactive; ? = inconclusive; [ ] = remark or other dose. % is scaled to controls: 0 for no effect and ±100 for the full control effect; potency is read from the fitted curve at half-maximal effect. Not all compounds are listed. The share of hits here may be higher or lower than overall.

SMILES	nsP2pro primary
COCc1cccc(-c2n[nH]c3c2CC(=O)N(c2ccccc2)C3)c1	-11%[39.2 µM]
CC(=O)O[C@@H]1C[C@@]23C[C@@]24CC[C@H](O[C@@H]2OC[C@H](O)[C@H](O)[C@H]2O)C(C)(C)[C@@H]4CC[C@H]3[C@]2(C)[C@@H](O)C34O[C@H](C[C@@H](C)[C@@H]3[C@@]12C)[C@@H](C(C)(C)O)O4	-6%
NC(=O)c1ccc[n+]([C@@H]2O[C@H](COP(=O)([O-])O)[C@@H](O)[C@H]2O)c1	-24%
CCOc1ccc(OC(=O)c2cn(-c3cccc(OC)c3)c(=O)c3ccccc23)cc1	-27%
O=C(NC1CCCCC1)c1nn(CCOc2ccccc2)c2c1CNCC2	-23%
O=C(CN1C(=O)N/C(=C\c2cccn2-c2cccc(C(=O)O)c2)C1=O)Nc1cccc(Cl)c1	i
Oc1ccc(CNc2ccccn2)c2cccnc12	-8%
N#Cc1ccc(CNc2nc(-c3ccccc3C(F)(F)F)nc3ccccc23)cc1	-7%
COc1ccc2c(Sc3ccccc3)c(C(=O)N3CCC(C)CC3)[nH]c2c1	-25%
COc1cccc(N2CCN(C(=O)C3CCCN(c4cnc5nccnc5c4)C3)CC2)c1 (stereo not drawn)	-19%
COc1ccc2c(Sc3ccc(C)cc3)c(C(=O)NCC(C)c3ccccc3)[nH]c2c1 (stereo not drawn)	-22%
Cc1nc(N2CCOCC2)c2nc(-c3ccccc3)n(CCCN3CCCCC3C)c2n1 (stereo not drawn)	-5%
COc1ccc(-c2n[nH]c3c2cnc2cc(OC)c(OC)cc23)cc1	?
Cc1ccccc1C(=O)N1CCC(C(=O)N2CCC(c3nc4ncccc4[nH]3)CC2)C1 (stereo not drawn)	-14%
O=C(Nc1ccc(Cl)cc1)c1ccc2c(c1)N(Cc1ccccc1)CCS2	-5%
C/C(=C\c1ccc2c(c1)OCO2)C1Nc2cccc3cccc(c23)N1	0%
CCCCCCCC(=O)OCC(COC(=O)CCCCCCC)OC(=O)CCCCCCC	12%
COc1cccc(COC2CN(CC(C)C)C(=O)CN(C(=O)c3csc(C(C)=O)c3)C2)c1 (stereo not drawn)	-6%
CCOc1ccc(C(=O)NCCc2csc(-c3cccnc3)n2)cc1	-12%
CCN(CC)Cc1ccc(C(=O)N(CCc2ccccc2OC)[C@@H]2CCNC2)cc1	?

Random excerpt: 4 entries already listed.
SMILES	nsP2pro primary
COc1ccc2c(Sc3ccc(C)cc3)c(C(=O)NCC(C)c3ccccc3)[nH]c2c1 (stereo not drawn)	-22%
NC(=O)c1ccc[n+]([C@@H]2O[C@H](COP(=O)([O-])O)[C@@H](O)[C@H]2O)c1	-24%
COc1cccc(COC2CN(CC(C)C)C(=O)CN(C(=O)c3csc(C(C)=O)c3)C2)c1 (stereo not drawn)	-6%
Oc1ccc(CNc2ccccn2)c2cccnc12	-8%

(list continues)
SMILES	nsP2pro primary
Cc1ccc(C)c(Cn2c(C3CC(=O)N(c4ccccc4C)C3)nc3ccccc32)c1 (stereo not drawn)	-25%
CC(C)CCN1CCNC(=O)C1CC(=O)NCc1ccc(O)cc1O (stereo not drawn)	-14%
CCCCCCO[C@@H](C)c1cccc(-c2csc(NC(=O)c3cc(Cl)c(/C=C(\C)C(=O)O)c(Cl)c3)n2)c1OC	6%
COC(=O)C1(C)c2[nH]c3ccccc3c2CCN1C(=O)CCl (stereo not drawn)	0%
CN1CCN(C(CNC(=O)C(=O)Nc2ccccc2C#N)c2ccc3c(c2)OCO3)CC1 (stereo not drawn)	-22%
CCOc1ccccc1CNC(=O)CCCN1C(=O)CCn2nc(-c3cccn3C)cc21	-25%
CCOc1cc(CNC(=O)c2sc3ncnc(N(C)C4CCCCC4)c3c2C)ccc1OC	-15%
COCC(=O)N1CCN2C(=O)N(C)C[C@H]2C1	-10%[39.2 µM]
CCCN(CCC)CCc1cccc2c1CC(=O)N2	2%
CC(C)=CCC/C(C)=C/CC/C(C)=C/COC1OC(COC2OCC(OC3OCC(O)C(O)C3O)C(O)C2O)C(O)C(OC2OC(C)C(OC3OC(C)C(OC4OCC(OC5OC(C)C(O)C(O)C5O)C(O)C4O)C(O)C3O)C(O)C2O)C1O (stereo not drawn)	-4%[5.1 µM]
CCC(=O)NCCc1nc2cc(NC(=O)c3cccc(Br)c3)ccc2n1C	-10%
CCCN1C[C@@H](CO)[C@H](c2nc(CCOC)no2)C1	-1%
O=C(Cn1c(=O)c2ccccc2n(CC(=O)Nc2ccc(F)cc2F)c1=O)NCCc1ccccc1	-6%
Nc1ccn([C@@H]2O[C@H](CO)[C@@H](O)[C@H]2O)c(=O)n1	4%
COc1ccccc1N1CCN(C(=O)Cn2c(=O)nc(-c3ccccc3)c3ccccc32)CC1	-2%
CCCC(O)C(CC)CO (stereo not drawn)	-5%
O=C(O)C1=NOC2CN(CC3CCCCC3)CC12 (stereo not drawn)	-19%[39.2 µM]
CN1CCN(c2oc(-c3ccc(COc4ccc(Cl)cc4)o3)nc2C#N)CC1	0%
CC(C)Nc1cccc(S(=O)(=O)N2CCCN(S(=O)(=O)c3ccc4c(c3)OCCO4)CC2)c1	-10%
CCOC(=O)c1cnc2c(C)c(Cl)ccc2c1Nc1ccc(N2CCOCC2)cc1	-19%
COc1cc(OC)c(OC)cc1/C=C/c1nc2cc3ccccc3cc2c(=O)n1-c1ccccc1Br	-15%
C=C1CC[C@@H]2[C@](C)(CO)[C@H](O)CC[C@@]2(C)[C@@H]1CC(O)C1=CCOC1=O (stereo partly drawn)	4%
COc1nnc(-c2ccc(N3CCCCC3)c(NC(=O)c3ccc(Cl)cc3)c2)c2ccccc12	-23%
O=C(Cc1ccc(Cl)c(Cl)c1)Nc1ccc([S+](=O)([O-])Nc2cccc([N+](=O)[O-])c2)cc1	?
COc1ccc(-c2ccc3nnc(CNC(=O)CCc4ccccc4)n3n2)cc1	0%
CCC(CC)c1cc([C@H]2CN3CC[C@H]2C[C@@H]3CNC(C)=O)nc(-c2ccncc2)n1	?
S=C(NC1CCCCC1)N[C@H]1CO[C@H]2[C@@H]1OC[C@@H]2n1nnnc1Oc1ccc2c(c1)OCO2	8%
O=C(NCc1ccccc1)C1CCCN(S(=O)(=O)c2cccc3nsnc23)C1 (stereo not drawn)	-26%
COC[C@@H]1CN(Cc2cnn(C(C)C)c2)C[C@H]1C(=O)NC1CC1	?
Cc1cccc(NC(=O)C2CCCN2S(=O)(=O)c2ccc3nc(-c4ccccc4)[nH]c3c2)c1 (stereo not drawn)	-23%
COc1ccc(C2Nc3cccc(OC)c3C(=O)N2Cc2ccccc2)cc1COc1ccc(NC(C)=O)cc1 (stereo not drawn)	?
O=S(=O)(Nc1nccs1)c1ccc(Nc2nc(-c3ccc(F)cc3)cs2)cc1	i
NC(=O)C1CCN(c2nnc(-c3ccc4c(c3)OCCCO4)s2)CC1	?
CCCOCCc1nc2c([nH]1)CC(C)(C)CNC2=O	3%
CCCCCNC(=O)c1ccc2c(=O)n(CCc3ccccc3)c(=O)[nH]c2c1	-16%
Cc1ccccc1CNC(=O)c1ccc2c(c1)C(O)CCCCCN2C (stereo not drawn)	i
Cc1cc(C(=O)NC2CC(c3cc(=O)[nH]cn3)C2)cc(S(N)(=O)=O)c1C (stereo not drawn)	2%
Cc1ccc(S(=O)(=O)Nc2ccc3c(c2)CN(CCc2ccc(F)cc2)C(=O)C(C)O3)cc1F (stereo not drawn)	-6%
COc1cc(OC)cc(C(=O)Nc2ccc3c(c2)N(C2CCCC2)C(=O)c2ccccc2S3)c1	-13%
CCN(CCCNC(=O)c1cc(Nc2ccc(OC)cc2)nc2ccccc12)c1cccc(C)c1	-20%
CCCCC1CCC(C(=O)Nc2ccc(S(=O)(=O)Nc3cc(C)on3)cc2)CC1 (stereo not drawn)	i
CC(C)(O)CNc1ncc(-c2ccnc(Nc3ccnc(Cl)c3)n2)c(CC2CC2)n1	11%
O=C(CN1C(=O)CC(c2ccco2)Sc2ccccc21)Nc1cccc(C(F)(F)F)c1 (stereo not drawn)	-4%
CCC1(CO)CCCN(CCCOc2ccc(C(N)=O)cc2)C1 (stereo not drawn)	-2%
Cc1ccc(NC(=O)CN2C(=O)COc3ccc(S(=O)(=O)N4CCCCCC4)cc32)c(C)c1	0%
Cc1cc(=O)n(CC(=O)NC(C)CCc2ccccc2)c(N2CCc3ccccc3C2)n1 (stereo not drawn)	-10%
CC(C)Oc1ccc2c(=O)c(-c3ccccc3)coc2c1	-1%
CCOC(=O)C(Cc1cccc(N2CCN([S+](=O)([O-])c3ccccc3Cl)CC2)c1)OC (stereo not drawn)	2%
COc1ccc2c(c1)c1c(c(=O)n(CCc3ccccc3)c(=O)n1Cc1ccc(F)cc1)n2C	-12%
O=C(NCc1ccc(F)cc1)c1ccc2c(c1)N(Cc1ccc(F)cc1Cl)C(=O)CS2	-24%
Cc1nn(-c2ccccc2)c(C)c1Cc1nc(C(C)C)no1	3%
Cn1cc(C(=O)NCc2ccccc2)c(=O)c2cc(S(=O)(=O)N3CCCCCC3)ccc21	-20%
CC(C)C(C(=O)N1CCCC1C(=O)O)N(C)C(=O)C(O)Cc1ccccc1 (stereo not drawn)	?
O=C(O)[C@H]1O[C@@H](Oc2cc3oc(-c4ccc(O)cc4)cc(=O)c3c(O)c2O)[C@H](O)[C@@H](O)[C@@H]1O	-12%
COc1ccc(C(=O)NC2CCN(c3nc4ncccc4o3)CC2)cc1	-4%
Cc1nn(CCC(=O)Nc2cccc(C#N)c2)c(C)c1S(=O)(=O)N1CCC(C)CC1	-19%
CCN(C(=O)c1cc(S(=O)(=O)N2CCc3ccccc32)cn1C)c1cccc(C)c1	-20%
N=c1nc2n(cc1F)C1OC(CO)C(O)C1O2 (stereo not drawn)	5%
Cc1cccc(C(=O)NCC(=O)OC(C(=O)Nc2cc(C(F)(F)F)ccc2Cl)c2ccccc2)c1 (stereo not drawn)	4%
CN(C)Cc1nnc(C2CC(NC(=O)c3conc3-c3ccccc3)C2)n1C (stereo not drawn)	4%

3 entries from above, set out differently.
structure,nsP2pro primary
CCOc1ccccc1CNC(=O)CCCN1C(=O)CCn2nc(-c3cccn3C)cc21,-25%
CCOc1cc(CNC(=O)c2sc3ncnc(N(C)C4CCCCC4)c3c2C)ccc1OC,-15%
COCC(=O)N1CCN2C(=O)N(C)C[C@H]2C1,-10%[39.2 µM]

Carrying on.
SMILES	nsP2pro primary
O=C(CC1CCN(C(=O)c2cc(F)ccc2F)C1)NC1CC1 (stereo not drawn)	-16%
O=C1CC2(CCN(Cc3ccc(C(F)(F)F)cc3)CC2)Oc2ccccc21	i
COc1ccc(-c2cc3nc4c(c(=O)n3[nH]2)CN(C(=O)CN(C)S(=O)(=O)c2cnc[nH]2)CC4)cc1	i
CCOc1ccc(NC(=O)Cn2c(=O)n(CCC(=O)NCCc3ccccc3)c(=O)c3ccccc32)cc1	-7%
O=C1CC2(CCN(S(=O)(=O)c3cccs3)CC2)Oc2ccccc21	-6%
COc1ccc(CCc2nc3c(C)c(-c4c(C)noc4C)c(C)cc3n2CCN2CCOCC2)cc1	-2%
c1ccc([C@@H]2C[C@H]2NC2CCNCC2)cc1	17%
COc1cccc(CNC(=O)CSc2n[nH]c(-c3ccccc3Cl)n2)c1OC	-13%
CO[C@H]1C[C@@H]2CC[C@@H](C)[C@@](O)(O2)C(=O)C(=O)N2CCCC[C@H]2C(=O)O[C@H]([C@@H](C)C[C@@H]2CC[C@@H](O)[C@H](OC)C2)CC(=O)[C@H](C)/C=C(\C)[C@@H](O)[C@@H](OC)C(=O)[C@H](C)C[C@H](C)/C=C/C=C/C=C/1C	?
CCSc1ncc(Cl)c(C(=O)N(Cc2ccccc2Cl)C2CCS(=O)(=O)C2)n1 (stereo not drawn)	-13%
CC1NC(=O)CCCNC(=O)C(Cc2c[nH]c3ccccc23)NC(=O)C(C)NC(=O)C(C(C)C)NC(=O)C(C(C)c2ccccc2)NC(=O)C(C(C)C)NC1=O (stereo not drawn)	16%[10 µM]
COc1cccc(CN2C[C@]34C=C[C@H](O3)C(C(=O)N3CCCCC3)C4C2=O)c1 (stereo partly drawn)	?
Cc1ccc(OCCn2c(CCNC(=O)c3ccc([N+](=O)[O-])cc3)nc3ccccc32)cc1	-13%
CNc1nc(-c2ccc3c(N)n[nH]c3c2)cc(N2CC(C(=O)NC3CCCCC3)CCC2C)n1 (stereo not drawn)	84%[activator]
Cc1ccc(S(=O)(=O)Nc2cnccc2C(=O)Nc2nc(-c3ccc(C)c(C)c3)cs2)cc1	i
CC1=NS(=O)(=O)c2cc(Cl)ccc2N1	3%
CSCc1noc(Cn2nc(C)c3ccccc3c2=O)n1	5%
CCOCCCNC(=O)c1cc2c(=O)n3ccccc3nc2s1	-12%
Nc1nc(NCc2ccc(-c3cccnc3)cc2)c2ccccc2n1	4%
CCOC(=O)CC(NC(=O)N1CCC(CN2CCC(C)CC2)CC1)c1ccccc1 (stereo not drawn)	-16%
Oc1cccc2cc(Nc3ccccc3)cnc12	i
O=C(c1ccccc1)N1CCCC2(CC(c3cccc(C(F)(F)F)c3)=NO2)C1 (stereo not drawn)	-2%
O=C(c1cc(-c2ccc(F)cc2)on1)N1CCN(c2ccc(F)cc2)CC1	-16%
CCOC(=O)c1c(C)[nH]c(C)c1S(=O)(=O)N1CCN(c2ccc(Cl)cc2)CC1	-7%

Rewritten bar-delimited: entries from further up.
SMILES | nsP2pro primary
O=C(c1ccccc1)N1CCCC2(CC(c3cccc(C(F)(F)F)c3)=NO2)C1 (stereo not drawn) | -2%
O=C(c1cc(-c2ccc(F)cc2)on1)N1CCN(c2ccc(F)cc2)CC1 | -16%
CCOC(=O)c1c(C)[nH]c(C)c1S(=O)(=O)N1CCN(c2ccc(Cl)cc2)CC1 | -7%
